# CDC25B CDK2 inh = human CDC25B-CDK2/CyclinA binding inhibition. AID 1259370. z-score (test concentration not listed). 94,000 compounds, 0.72% hits. HTRF CDC25B-CDK2/CyclinA binding, anti-His/anti-Flag; stronger effect = higher value. P30305+P24941;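 note: score is relative to mean and SD of negative controls; strong numbers were not always called active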
# HIV TAR-Tat = HIV-1 TAR-Tat binding disruption; HIV-1 TAR RNA, Tat peptide displacement FRET; stronger effect = higher value; z-score (test concentration not listed); 100,000 compounds, 0.6% hits; AID 1259389;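 note: score is relative to mean and SD of negative controls; some compounds called inactive have numbers as strong as hits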
# Numbers without * were called inactive; nt = not tested or not shown.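 Rule for the calls: active = z-score from 3 up in half or more of its runs; inactive = the rest.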
# The opening four compounds, ahead of the listing:
# The line under a structure holds: CDC25B CDK2 inh	HIV TAR-Tat
O=C1c2ccccc2C(=O)N1CN1CCN(c2ccc(C(F)(F)F)cc2[N+](=O)[O-])CC1
 : -1.2	nt
O=C(O)CS(=O)(=O)Cc1cccc(F)c1
 : nt	0.36
Nc1nc(S(=O)(=O)Cc2ccccc2)nn1Cc1ccc(F)cc1
 : nt	1.1
COC(=O)c1cc(S(=O)(=O)N2CCN(C(c3ccc(F)cc3)c3ccc(F)cc3)CC2)c[nH]1
 : nt	0.42

# All compounds of this part, from the first entry:
# The line under a structure holds: CDC25B CDK2 inh	HIV TAR-Tat
O=C1c2ccccc2C(=O)N1CN1CCN(c2ccc(C(F)(F)F)cc2[N+](=O)[O-])CC1
 : -1.2	nt
O=C(O)CS(=O)(=O)Cc1cccc(F)c1
 : nt	0.36
Nc1nc(S(=O)(=O)Cc2ccccc2)nn1Cc1ccc(F)cc1
 : nt	1.1
COC(=O)c1cc(S(=O)(=O)N2CCN(C(c3ccc(F)cc3)c3ccc(F)cc3)CC2)c[nH]1
 : nt	0.42
Cc1ccc(CC(=O)Nc2sc3c(c2C(N)=O)CCC3)c(C)c1
 : nt	0.24
c1ccc(-c2cc(N3CCOCC3)n[nH]2)cc1
 : -1.8	1.5
CC1=C(c2ccccc2)S(=O)(=O)N=C1Nc1cc(C)cc(C)c1
 : -4.6	-2.1
COc1cccc2c1c(NS(=O)(=O)c1cccc3nonc13)nn2C
 : -2	nt
C#CCN1C(=O)C(O)(CC(=O)c2ccc(C(C)(C)C)cc2)c2ccccc21 (configuration not stated)
 : -2.1	0.27
CN1C(=O)C2CCCCN2c2ccc(C(=O)N3CCOCC3)cc21 (configuration not stated)
 : nt	0.8
CCC1Sc2ccc(S(=O)(=O)CCC(=O)N3CCCC3)cc2NC1=O (configuration not stated)
 : nt	1.5
CCc1c(CN(CC)Cc2ccccc2)csc1C
 : nt	2.1
CSc1cccc(NC(=O)N2CCCn3nc(C)cc32)c1
 : nt	2.5
Nc1cccc(-c2nc3ccc(N)cc3s2)c1
 : -4.8	1.5
C=Cn1cnc2c1c(=O)n(C)c(=O)n2C
 : -1	-0.82
Fc1ccc(C2=Nn3c(Cc4ccccc4)nnc3SC2)cc1
 : nt	2
CCc1nnc2c(Nc3cccc(C)c3)nc3ccccc3n12
 : 0.36	1
Cc1cccc(N2CCN(CC(O)c3ccc4c(c3)CCN4)CC2)c1C (configuration not stated)
 : -1.4	-0.66
CCCCCNC(=O)C1CCC(Cn2c(=O)c3sccc3n(CC)c2=O)CC1 (configuration not stated)
 : nt	-0.59
CNC(=O)c1c(NC(=O)c2ccc(S(=O)(=O)N3CC(C)OC(C)C3)cc2)sc2c1CCC2 (configuration not stated)
 : nt	0.74
Cn1c(=O)oc2cc(NS(=O)(=O)c3cccc(Cl)c3)ccc21
 : nt	0.07
COc1ccc(N=C2NC(=O)C(CO)(CO)S2)cc1
 : -0.79	0.92
CCC(C(=O)O)N1CCN(C)C(=O)C1=O (configuration not stated)
 : nt	0.96
CCc1c(C)nc2nncn2c1NCc1ccc(C)cc1
 : 0.01	0.93
CCOC(=O)C1=C(C)NC2=C(C(=O)C(C(=O)OC)C(C)C2)C1c1cccs1 (configuration not stated)
 : -1.4	-0.85
CCSc1ncc(Cl)c(C(=O)N(Cc2ccc(CC)cc2)C2CCS(=O)(=O)C2)n1 (configuration not stated)
 : 2.1	1.4
C=CCn1c(N)c(C(N)=O)sc1=S
 : -2.3	nt
O=C(NC1CCCC1)c1ccc2cccc(O)c2n1
 : nt	0.64
CCOC(=O)c1c[nH]c2cc(OC)c(OC)cc2c1=O
 : 1.2	0.78
C=CCOc1ccc(C2C3=C(CC(C)(C)CC3=O)Nc3[nH]c(=S)[nH]c(=O)c32)cc1OC (configuration not stated)
 : 0.6	nt
Cc1ccc(S(=O)(=O)NCCn2nc(-c3ccc(F)cc3)ccc2=O)cc1C
 : nt	0.7
C=CCSc1ncc(Cl)c(C(=O)Nc2ccccc2)n1
 : -0.89	0.88
Cc1nc(Nc2ccc3c(c2)OCCO3)cc(-c2ccccc2)n1
 : 0.77	0.94
CCC(C)NS(=O)(=O)c1cccc2cccnc12 (configuration not stated)
 : -0.41	nt
Cc1cc(C)c2c(=O)cc(C(F)(F)C(F)F)oc2n1
 : -1.1	nt
Cc1cc(C)n(-c2ccc(Nc3ccccc3)nn2)n1
 : -1.4	-0.51
CCc1nnc(SCC(=O)N(C)c2ccccc2)c2cc3sccc3n12
 : nt	1.1
O=C(Cn1c(=O)n(-c2ccccc2)c(=O)c2sccc21)NC1CCCC1
 : 0.99	nt
CCc1cccc(N(C)C(N)=Nc2cccc3ccccc23)c1
 : -0.29	nt
CCCN1C(=O)c2[nH]nc(-c3ccc(C)cc3)c2C1c1ccc(O)c(OCC)c1 (configuration not stated)
 : 0.22	1.9
O=C(O)c1ccccc1CN1C(=O)C2CCCN2C(=O)c2ccccc21 (configuration not stated)
 : -0.91	1.2
Cc1c(Cl)cccc1N1COc2ccc3c(C)cc(=O)oc3c2C1
 : 0.56	nt
CCN(CC)c1ccc(C2C(C(=O)OC(C)C)=C(C)NC3=C2C(=O)CCC3)cc1 (configuration not stated)
 : -2.2	1.7
COc1ccc(C2/C(=C(\O)c3ccc(C)cc3)C(=O)C(=O)N2CCCn2ccnc2)cc1 (configuration not stated)
 : -2	-0.59
O=C(CCCCCN1CCN(c2ccccc2-c2ccccc2)CC1)NC1CCCc2ccccc21 (configuration not stated)
 : -2	nt
O=C(NCc1nc(-c2ccc(Cl)cc2)no1)N1CCOCC1
 : -2.5	-0.98
Cc1cc(-c2ccc(C)c(S(=O)(=O)Nc3ccccn3)c2)on1
 : nt	0.66
CC(=O)N1c2ccc(S(=O)(=O)N3CCCC3)cc2CC1C(=O)NCc1ccc(C)o1 (configuration not stated)
 : nt	0.74
CC(=O)C(Sc1ncccn1)C(C)=O
 : -1.4	nt
S=c1[nH]nc2ccccn12
 : -2.6	nt
CCOC(=O)CN(C)c1ncnc2onc(C)c12
 : 1.2	0.76
Cc1oc(-c2ccccc2)nc1CSc1nc2ncccc2o1
 : nt	-0.05
COc1ccc(-c2cc(-c3ccccc3)nc3ncnn23)cc1
 : 0.69	-5
CN(C)S(=O)(=O)c1cccc(-c2cn3cc(Cl)ccc3n2)c1
 : -1.3	-2.1
Cc1oc2ncnc(N3CCOCC3)c2c1C(=O)N1CCC(C(N)=O)(N2CCCCC2)CC1
 : nt	0.74
O=C(CN1N=NC2C(=O)N(c3ccc(Br)cc3)C(=O)C21)Nc1cc(F)ccc1F (configuration not stated)
 : nt	1.6
O=C(O)CSCC(=O)Nc1nc(-c2ccc(F)c(F)c2)cs1
 : -1.6	nt
Cc1ccc(C)n1-c1nnc(N2CCC(C(=O)N3CCC(N4CCCCC4)CC3)CC2)s1
 : -1.1	0.25
Cc1ccc(-c2ccc(=O)[nH]n2)cc1S(=O)(=O)CCC(=O)O
 : nt	0.96
Cc1cc(C)c(S(=O)(=O)Nc2ccc3c(c2)CC(=O)N3C)c(C)c1
 : nt	1.1

# (next part)
# The line under a structure holds: CDC25B CDK2 inh	HIV TAR-Tat
COc1cc(Nc2ncc3c(n2)CCN(Cc2cc(OC)ccc2OC)C3)cc(OC)c1
 : nt	0.52
O=c1[nH]c2ccc(S(=O)(=O)Nc3ccc(Br)cc3)cc2s1
 : -2.1	nt
CCOC(=O)C(C)Oc1cc2oc(=O)c3c(c2cc1Cl)CCCC3 (configuration not stated)
 : -0.59	nt
COc1ccc(Br)cc1C1CC(=O)Nc2cc(C)c(C)cc21 (configuration not stated)
 : -0.74	nt
Cc1c(C(=O)OC(C)C)c2cc(NS(C)(=O)=O)ccc2n1S(C)(=O)=O
 : -2	0.98
COc1cc(-c2cc(OC)c3c(C)oc(C)c3c(=O)c2)ccc1OC(=O)c1ccc(C)cc1
 : -1.7	-3.2
CC(C)(C)SCCNc1nc(Sc2ccc(Cl)cc2)nc(N2CCSCC2)n1
 : -1.2	nt
CCCn1cc(S(=O)(=O)c2ccccc2)c(=O)c2cc(F)c(N3CCCC(C)C3)cc21 (configuration not stated)
 : nt	-0.01
CCOC(=O)c1c(N2C(=O)CC(Sc3ccccc3C(=O)O)C2=O)sc2c1CCCC2 (configuration not stated)
 : -1.8	0.41
CC1=[N+]([O-])C(C)(C)C(c2cccs2)=[N+]1[O-]
 : -2.1	nt
N#CC1(c2ccccc2)N=C2C=CC=CN2N=C1c1ccccc1 (configuration not stated)
 : -0.24	nt
CCn1c(=O)c(=O)n(CC)c2cc(S(=O)(=O)NCc3cccs3)ccc21
 : -0.1	nt
CC1CC(NC(=O)/C(C#N)=C/c2ccc[nH]2)CC(C)(C)C1 (configuration not stated)
 : -0.41	nt
CCCCc1nn2cc(-c3cccc(Br)c3)nc2s1
 : 1.1	0.91
O=c1c(-c2cc(F)ccc2F)c(O)nc2n1CCCC2
 : -2.8	nt
CC1=C(c2ccc(C)cc2)S(=O)(=O)N=C1N1CCC(N2CCCCC2)CC1
 : -0.49	-0.05
Cc1cccn2c(=O)c3cc(C#N)c(=O)n(CCc4ccccc4)c3nc12
 : -2.3	-4.5
Cc1onc(-c2c(F)cccc2Cl)c1C(=O)OCn1nnc2ccccc2c1=O
 : 0.35	-0.37
CN(C(=O)CCS(=O)(=O)c1ccc2c(c1)NC(=O)CO2)c1ccc(Br)cc1
 : nt	2
Cc1cc(=O)oc2c1c(C)nn2C
 : -2.2	nt
CCOC(=O)c1cc(-c2ccnn2S(=O)(=O)c2cccc(C(F)(F)F)c2)on1
 : -0.4	nt
CCC(=O)N1CCc2cc(S(=O)(=O)CCC(=O)N3CCN(c4ccc(Cl)cc4)CC3)ccc21
 : nt	0.65
COc1ccccc1C1C2=C(Nc3c1c(=O)[nH]c(=O)n3C)c1ccccc1C2=O (configuration not stated)
 : -5.4	1.8
O=C(NCC(c1ccco1)N1CCCCC1)c1cc(=O)c2cc(Cl)ccc2o1 (configuration not stated)
 : -2	-0.9
COc1ccc2c(c1)cc1c(=O)n(CC(=O)NCc3ccco3)nc(C)n12
 : -0.33	0.3
CCC(C)Sc1nc2c(cnn2-c2ccc(F)cc2)c(=O)[nH]1 (configuration not stated)
 : 0.94	nt
CCC(=O)Nc1ccccc1SCc1cc(=O)n2cc(C)sc2n1
 : nt	0.13
O=C(Nc1ccc2c(c1)OCCO2)c1cccc(C(=O)Nc2ccc3c(c2)OCCO3)n1
 : -2.7	11
Cc1nn(-c2ccc(Br)cc2)cc1-c1noc(C(=O)NC2CCCc3ccccc32)n1 (configuration not stated)
 : nt	-0.63
Nc1c(C(=O)NCc2cccs2)nnn1-c1ccccc1
 : -0.99	nt
COCC(=O)n1nc(-c2ccco2)nc1NCc1cccs1
 : -0.27	0.72
COc1ccc(-n2cc3c(c2-c2ccccc2)c(=O)n(-c2ccccc2)n3C)cc1
 : -0.28	0.49
CN1C(=O)C(Cc2nc3ccccc3c(=O)n2CCCO)c2ccccc21 (configuration not stated)
 : -0.5	1.4
CCCNc1cc(C)nc2c(-c3ccc(F)cc3)c(C(F)(F)F)nn12
 : -1.2	0.06
N#Cc1c(N2CCOCC2)nsc1-c1ccc(C(F)(F)F)cc1
 : -0.29	nt
NC(=O)C1CCN(c2c(S(=O)(=O)c3ccc(Cl)cc3)cnc3ccc(F)cc23)CC1
 : -0.21	0.6
O=[N+]([O-])c1ccc(Sc2ncn[nH]2)c([N+](=O)[O-])c1
 : -1.3	nt
O=S1(=O)CCC(S(=O)(=O)Nc2ccc(F)cc2)C1 (configuration not stated)
 : -0.84	0.83
CN/C(=C\[N+](=O)[O-])NCCSCc1ccc(CN(C)C)o1
 : -1.5	-1.4
Cc1ccnc(SCCn2c(N3CCN(c4ccccc4)CC3)nc3c2c(=O)n(C)c(=O)n3C)n1
 : 3	nt
COC(=O)CSC1=C(C#N)C(c2ccccc2Cl)CC(=O)N1 (configuration not stated)
 : -1.4	1.4
CCOc1ccc(-n2ccnc2SCC(=O)Nc2nnc(CC)s2)cc1
 : -1.8	nt
Cc1nc2sccn2c(=O)c1S(=O)(=O)NCCc1ccccc1
 : -1.2	0.35
CCn1cc(S(=O)(=O)c2cc(C)ccc2C)c(=O)c2cc(F)c(N3CCN(C)CC3)cc21
 : nt	-0.85
COc1cc(NC(=O)c2noc3c2CCc2sccc2-3)cc(OC)c1
 : nt	1.5

# Complete entries, quoted from the list. Values in the order: CDC25B CDK2 inh	HIV TAR-Tat
# `Cc1oc2ncnc(N3CCOCC3)c2c1C(=O)N1CCC(C(N)=O)(N2CCCCC2)CC1` across the screens: nt	0.74
# `Cc1ccc(S(=O)(=O)NCCn2nc(-c3ccc(F)cc3)ccc2=O)cc1C` across the screens: nt	0.7
# `O=C(NC1CCCC1)c1ccc2cccc(O)c2n1` across the screens: nt	0.64
# `Nc1c(C(=O)NCc2cccs2)nnn1-c1ccccc1` across the screens: -0.99	nt
# `CCn1c(=O)c(=O)n(CC)c2cc(S(=O)(=O)NCc3cccs3)ccc21` across the screens: -0.1	nt

# (cont.)
# The line under a structure holds: CDC25B CDK2 inh	HIV TAR-Tat
COc1ccc(C2/C(=C(\O)c3ccccc3)C(=O)C(=O)N2c2nc3ccccc3s2)cc1 (configuration not stated)
 : -2	1.3
NC1=NC(c2ccccc2)n2c(nc(=O)c3ccccc32)N1 (configuration not stated)
 : -1.3	0.74
Cc1nn(C)c(C(=O)O/N=C(\N)c2ccc([N+](=O)[O-])o2)c1[N+](=O)[O-]
 : -2.1	nt
CCn1nc(C)c(CCNC(=O)NC2CCCCC2)c1C
 : nt	-1.7
COc1ccc(Cl)cc1NS(=O)(=O)c1c(C)nc2scc(C)n2c1=O
 : -0.91	0.12
NC(=O)C1CCN(C(=O)C2CCN(S(=O)(=O)c3ccccc3)CC2)CC1
 : -1	-0.95
C=CCOC(=O)C1=C(C)NC2=C(C(=O)CCC2)C1c1cc(Br)c(O)c(OCC)c1 (configuration not stated)
 : 0.8	1.4
CCOc1ccc(-c2nc(=S)c3c([nH]2)Oc2cc(O)ccc2C3)cc1
 : 0.22	-3
Cc1nn(C)c2sc(C(=O)NN)cc12
 : -2.4	nt
CCOc1ccc(C2=NN(C(C)=O)C(c3cc(C)nc4ccccc34)O2)cc1 (configuration not stated)
 : nt	0.6

# Compound activity (PubChem)
